NOMO-1 viab – STK33 inhibitor candidate reducing NOMO-1 cell viability. NOMO-1 AML viability, CellTiter-Glo luminescence, 72 h. inhibition, % (no concentration beside the values). 7.5% of 37,000 active. AID 2330;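 active = most replicates above 80%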;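 note: wells of about 30 µL received 25 nL stock; 0% = median of vehicle wells and 100% = reference inhibitor level; the first replicate is given; inactives centre near 10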
Starred values were filed as active, the others as inactive. Some of the compounds tested; the hit share may differ from the screen's.

SMILES | NOMO-1 viab
C[C@@H]1CN([C@H](C)CO)C(=O)c2cccc(NC(=O)c3ccc(-c4nccs4)cc3)c2O[C@H]1CN(C)Cc1ccc(C(F)(F)F)cc1 | 84*
CC(C)(C)NS(=O)(=O)c1ccc(NC(=O)COc2ccc3ccccc3c2Br)cc1 | 55
COc1ccc(OC)c(S(=O)(=O)N2CCC(C(=O)Nc3ccc4c(c3)OCCO4)CC2)c1 | 21
O=C(O)CCS(=O)(=O)c1cccc2cccnc12 | -25
C[C@@H]1CN([C@@H](C)CO)C(=O)c2cccc(NC(=O)c3ccncc3)c2O[C@H]1CN(C)C(=O)Nc1cccc2ccccc12 | 3
C[C@H](CO)N1C[C@H](C)[C@H](CN(C)CC2CCCCC2)Oc2ccc(NS(=O)(=O)c3cn(C)cn3)cc2C1=O | 7
COc1ccc(/C=C/c2cc(OC)cc3c2CCC(C)(C)O3)cc1 | 44
C[C@H](CO)N1C[C@H](C)[C@H](CN(C)Cc2ccc(Cl)c(Cl)c2)Oc2ccc(NC(=O)Cc3cn(C)c4ccccc34)cc2C1=O | 108*
C[C@H]1CN([C@@H](C)CO)C(=O)Cc2cc(NC(=O)C3CC3)ccc2O[C@H]1CN(C)C(=O)Nc1ccccc1 | 0
C[C@H]1CN([C@@H](C)CO)C(=O)c2cc(N(C)C)ccc2O[C@@H]1CN(C)S(=O)(=O)c1cccs1 | 6
C[C@H](CO)N1C[C@H](C)[C@H](CN(C)C(=O)Nc2ccccc2)Oc2ccc(NS(=O)(=O)c3ccccc3)cc2C1=O | 18
C=CCn1c(-c2ccccc2)n[nH]c1=S | 14
CC1(C)CC(=O)C2=C(C1)Nc1ccccc1N(C(=O)C(F)(F)F)C2c1ccc(Cl)cc1Cl (stereo unspecified) | 87*
C[C@H]1CN([C@@H](C)CO)C(=O)c2cccc(NS(C)(=O)=O)c2O[C@H]1CN(C)Cc1ccc(-c2ccccc2)cc1 | 18
Cc1noc(C)c1NC(=O)Nc1ccc2c(c1)C(=O)N([C@H](C)CO)C[C@H](C)[C@H](CN(C)Cc1ccc3c(c1)OCO3)OCCCC[C@@H](C)O2 | 6
C[C@H](CO)N1C[C@H](C)[C@H](CN(C)S(=O)(=O)c2cn(C)cn2)Oc2ccc(NS(=O)(=O)c3cn(C)cn3)cc2C1=O | 14
CCn1c(SCC(=O)Nc2ccccc2F)nnc1-c1ccc(Br)cc1 | 2
C[C@H]1CN([C@@H](C)CO)C(=O)Cc2cc(NC(=O)c3ccncc3)ccc2O[C@@H]1CN(C)Cc1ccc(Cl)c(Cl)c1 | 1
CCOc1ccc(NC(=O)CSc2nccc(C)n2)cc1 | 3
C[C@@H]1CN([C@H](C)CO)C(=O)c2cc(NS(=O)(=O)c3ccccc3)ccc2O[C@H]1CN(C)Cc1ccc(C(=O)Nc2ccccc2N)cc1 | 48

Rewritten with each value named: entries from further up.
C[C@H](CO)N1C[C@H](C)[C@H](CN(C)S(=O)(=O)c2cn(C)cn2)Oc2ccc(NS(=O)(=O)c3cn(C)cn3)cc2C1=O
  NOMO-1 viab = 14
CCn1c(SCC(=O)Nc2ccccc2F)nnc1-c1ccc(Br)cc1
  NOMO-1 viab = 2

(further entries)
SMILES | NOMO-1 viab
Cc1noc(C)c1S(=O)(=O)Nc1ccc2c(c1)C(=O)N([C@@H](C)CO)C[C@@H](C)[C@@H](CN(C)Cc1ccc(C(F)(F)F)cc1)O2 | 42
CCN1CCN(c2ccc(NC(=O)/C=C/c3ccccc3)cc2)CC1 | 59
CN1CCN(C(=O)CCc2nc(-c3ccc(Cl)cc3)no2)CC1 | -6
C[C@@H]1CN([C@@H](C)CO)C(=O)c2cc(NS(=O)(=O)c3ccc(Cl)cc3)ccc2O[C@H]1CN(C)Cc1ccc(C(F)(F)F)cc1 | 107*
CCc1ccccc1NC(=O)CSc1nc2cc(C(F)(F)F)ccc2s1 | -5
C[C@@H]1CN([C@H](C)CO)C(=O)c2cccc(NC(=O)c3cnccn3)c2O[C@H]1CN(C)C | 11
COc1ccccc1N(CC(=O)Nc1ccc(F)c(F)c1)S(C)(=O)=O | -6
Cc1ccc(S(=O)(=O)Nc2ccc3c(c2)CC(=O)N([C@H](C)CO)C[C@@H](C)[C@H](CN(C)C)O3)cc1 | -21
Cc1nnc(SCC(=O)Nc2cccc(C(F)(F)F)c2)s1 | 8
C[C@@H]1CN([C@@H](C)CO)C(=O)c2cc(NC(=O)CCN3CCOCC3)ccc2O[C@@H]1CN(C)Cc1ccncc1 | 20
C[C@@H]1CCCCO[C@H](CN(C)Cc2ccc(C(=O)O)cc2)[C@@H](C)CN([C@H](C)CO)C(=O)c2cc(NS(C)(=O)=O)ccc2O1 | 28
CCOC(=O)CSc1n[nH]c(=S)s1 | 11
O=C(NCCNc1ncc(C(F)(F)F)cc1Cl)C(F)(F)Sc1ccccc1 | 18
COc1cc(C2c3cc(O[C@@H]4O[C@H](CO)[C@@H](O)[C@H](O)[C@H]4O)c(OC)cc3CC(CO)C2CO)ccc1O (stereo partly specified) | 22
C[C@@H]1CN([C@H](C)CO)C(=O)c2cccc(NS(=O)(=O)c3ccc(F)cc3)c2O[C@@H]1CN(C)C(=O)Nc1ccc2c(c1)OCO2 | -2
COC(=O)c1c(NC(=S)NCCn2cc(Br)cn2)sc2c1CCC2 | 25
Cc1ccc(Cl)cc1NC(=O)C(C)n1nc(C)c([N+](=O)[O-])c1C (stereo unspecified) | 3
C[C@@H]1CN([C@H](C)CO)C(=O)Cc2cc(NC(=O)CCC(F)(F)F)ccc2O[C@@H]1CN(C)Cc1ccc(C(F)(F)F)cc1 | 38
COc1ccc(NC(=O)N(C)C[C@@H]2Oc3ccc(NC(=O)NC4CCCCC4)cc3CC(=O)N([C@H](C)CO)C[C@H]2C)cc1 | -1
CSc1cccc(NC(=O)CSc2ncn(-c3ccccc3)n2)c1 | 8

A run of entries from further up, as a working copy:
SMILES | NOMO-1 viab
C[C@@H]1CCCCO[C@H](CN(C)Cc2ccc(C(=O)O)cc2)[C@@H](C)CN([C@H](C)CO)C(=O)c2cc(NS(C)(=O)=O)ccc2O1 | 28
CCOC(=O)CSc1n[nH]c(=S)s1 | 11

Continued.
SMILES	NOMO-1 viab
CC1(C)CC(=O)C2=C(C1)OC(N)=C(C#N)C21C(=O)N(CO)c2ccccc21 (stereo unspecified)	-11
CC(C)=CCC/C(C)=C/CC/C(C)=C/CSc1ncn[nH]1	39
C[C@@H]1CN([C@@H](C)CO)C(=O)c2cc(N(C)C)ccc2O[C@H]1CN(C)C(=O)Nc1ccc2c(c1)OCO2	22
CC(C)NC(=O)Nc1ccc2c(c1)C(=O)N([C@H](C)CO)C[C@H](C)[C@H](CN(C)S(=O)(=O)c1ccc(Cl)cc1)O2	-6
C[C@H](CO)N1C[C@H](C)[C@H](CN(C)Cc2ccc(C(=O)O)cc2)Oc2ccc(NC(=O)Nc3ccccc3)cc2C1=O	2
COc1cccc(CNCCSc2nnnn2C)c1	14
O=C(O)CN(c1cccc(Br)c1)S(=O)(=O)c1ccccc1	13
CN(CC(=O)Nc1ccccc1C(=O)N1CCCCC1)S(=O)(=O)c1ccc2ccccc2c1	26
COc1cc(NC(=O)CSc2nnc(-c3ccncc3)o2)cc(OC)c1OC	15
CCOC(=O)CNC(=O)c1cc(-c2ccccn2)nc2c(C)c(Cl)ccc12	97*
Cc1noc(C)c1NC(=O)N(C)C[C@@H]1Oc2ccc(NC(=O)CCC(F)(F)F)cc2C(=O)N([C@@H](C)CO)C[C@@H]1C	1
C[C@H](CO)N1C[C@H](C)[C@H](CN(C)S(=O)(=O)c2ccc(Cl)cc2)Oc2c(NC(=O)c3ccncc3)cccc2C1=O	34
C[C@]1(O)CC[C@@H]2C(C(=O)O)=CO[C@@H](O[C@@H]3O[C@H](COC(=O)c4ccc(O)cc4)[C@@H](O)[C@H](O)[C@H]3O)[C@@H]21	11
C[C@@H]1CN([C@@H](C)CO)C(=O)c2cc(N(C)C)ccc2O[C@H]1CN(C)C(=O)Nc1ccccc1	23
C[C@H](CO)N1C[C@H](C)[C@@H](CN(C)Cc2ccc(-c3ccccc3)cc2)Oc2c(NC(=O)c3ccncc3)cccc2C1=O	83*
C[C@H]1CN([C@@H](C)CO)C(=O)c2cc(NC(=O)Cc3cn(C)c4ccccc34)ccc2O[C@@H]1CN(C)Cc1ccc(-c2ccccc2)cc1	60
C[C@H](CO)N1C[C@H](C)[C@H](CN(C)Cc2ccc(C(F)(F)F)cc2)Oc2ccc(NC(=O)CCCCCC(=O)Nc3ccccc3N)cc2C1=O	47
COC(=O)C(Cc1ccccc1)NC(=O)c1ccccc1 (stereo unspecified)	56
Cc1ccc(S(=O)(=O)NC2(C(=O)O)CCCCC2)cc1	10
COc1ccccc1-c1nnc(SCC(=O)c2ccc(Cl)cc2)n1-c1ccccc1	24
C[C@@H]1CN([C@H](C)CO)C(=O)Cc2cc(N(C)C)ccc2O[C@H]1CN(C)Cc1ccc(Oc2ccccc2)cc1	110*
COC(=O)c1ccccc1S(=O)(=O)/C(C#N)=C/Nc1nc(C)cc(C)n1	33
O=C(COc1cccc(C(F)(F)F)c1)NCc1cccnc1	13
C[C@H]1CN([C@@H](C)CO)C(=O)c2cccc(NC(=O)NC3CCCCC3)c2O[C@H]1CN(C)Cc1ccc(Oc2ccccc2)cc1	11
CCn1c(SCC(=O)Nc2ccc(Cl)cc2Cl)nnc1-c1cc(Br)ccc1O	25
C[C@H](CO)N1C[C@H](C)[C@H](CN(C)CC2CCCCC2)Oc2c(NC(=O)C3CCCCC3)cccc2C1=O	34
NC(=O)c1c(NC(=O)c2ccc(COc3cc(Cl)ccc3Cl)o2)sc2c1CCCC2	-4
C[C@H](CO)N1C[C@H](C)[C@H](CN(C)S(=O)(=O)c2cccs2)Oc2ccc(NS(=O)(=O)c3ccccc3)cc2CC1=O	3
C[C@H](CO)N1C[C@H](C)[C@@H](CN(C)Cc2ccncc2)Oc2ccc(NS(C)(=O)=O)cc2C1=O	0
O=C(O)c1ccc(CSc2n[nH]c(-c3ccco3)n2)cc1	-15
Cc1noc(C)c1S(=O)(=O)Nc1ccc2c(c1)CC(=O)N([C@@H](C)CO)C[C@@H](C)[C@@H](CN(C)Cc1ccc3c(c1)OCO3)O2	14
COC(=O)c1scc(C#N)c1N=CN(C)C	-8
C[C@@H]1CN([C@@H](C)CO)C(=O)Cc2cc(NC(=O)Cc3ccccc3)ccc2O[C@@H]1CN(C)Cc1ccc(Oc2ccccc2)cc1	127*
C[C@@H]1CCCCO[C@@H](CN(C)S(=O)(=O)c2cccs2)[C@@H](C)CN([C@H](C)CO)C(=O)c2cc(NS(C)(=O)=O)ccc2O1	13
CC(C)NC(=O)N(C)C[C@@H]1Oc2ccc(NS(C)(=O)=O)cc2C(=O)N([C@H](C)CO)C[C@@H]1C	-3
C=C(C)Cn1c(SCC(=O)O)nnc1-c1ccccc1	18

Reprinted at random: 6 compounds from above.
SMILES	NOMO-1 viab
COc1cccc(CNCCSc2nnnn2C)c1	14
CN(CC(=O)Nc1ccccc1C(=O)N1CCCCC1)S(=O)(=O)c1ccc2ccccc2c1	26
C[C@H]1CN([C@@H](C)CO)C(=O)c2cc(N(C)C)ccc2O[C@@H]1CN(C)S(=O)(=O)c1cccs1	6
COc1ccccc1-c1nnc(SCC(=O)c2ccc(Cl)cc2)n1-c1ccccc1	24
C[C@H](CO)N1C[C@H](C)[C@@H](CN(C)Cc2ccc(-c3ccccc3)cc2)Oc2c(NC(=O)c3ccncc3)cccc2C1=O	83*
Cc1noc(C)c1NC(=O)Nc1ccc2c(c1)C(=O)N([C@H](C)CO)C[C@H](C)[C@H](CN(C)Cc1ccc3c(c1)OCO3)OCCCC[C@@H](C)O2	6

Remaining list, next part:
SMILES	NOMO-1 viab
C[C@H](CO)N1C[C@H](C)[C@@H](CN(C)Cc2ccc(-c3ccccc3)cc2)Oc2ccc(NS(=O)(=O)c3cccs3)cc2C1=O	5
CCOc1ccc(NC(=O)Cn2cnc3scc(-c4ccc5ccccc5c4)c3c2=O)cc1	-2
CC(C)NC(=O)N(C)C[C@H]1Oc2ccc(NC(=O)CCCN(C)C)cc2C(=O)N([C@H](C)CO)C[C@H]1C	-7
C[C@@H]1CN([C@H](C)CO)C(=O)c2cc(NS(=O)(=O)c3ccc(F)cc3)ccc2O[C@@H]1CN(C)Cc1ccc2c(c1)OCO2	15
CN(C)S(=O)(=O)c1ccc(C(=O)Nc2nc3c(s2)CCc2ccccc2-3)cc1	113*
O=C(CCN1CCN(CCO)CC1)Nc1ccc(F)c(F)c1	-4
C[C@@H]1CN([C@H](C)CO)C(=O)c2cccc(NC(=O)c3nc4ccccc4s3)c2O[C@H]1CN(C)C(=O)Nc1ccc(F)cc1	6
C[C@H](CO)N1C[C@H](C)[C@H](CN(C)Cc2ccc(-c3ccccc3)cc2)Oc2c(NS(C)(=O)=O)cccc2C1=O	0
COC(=O)C(Cc1c[nH]c2ccccc12)NS(=O)(=O)c1cccc2nonc12 (stereo unspecified)	-16
O=C(Nc1ccc(S(=O)(=O)Nc2nccs2)cc1)C1CC(=O)N(c2ccccc2)C1 (stereo unspecified)	-30
Clc1ccccc1CNc1nc2ccccc2n1CCN1CCOCC1	0
N#Cc1c(-c2ccc3c(c2)OCO3)cc(-c2ccccc2O)[nH]c1=O	17
C[C@@H]1CCCCO[C@@H](CN(C)C(=O)c2ccncc2)[C@@H](C)CN([C@H](C)CO)C(=O)c2cc(NC(=O)c3ccncc3)ccc2O1	22
C[C@H]1CN([C@@H](C)CO)C(=O)c2cc(NS(=O)(=O)c3ccc(Cl)cc3)ccc2O[C@H]1CN(C)Cc1ccc2c(c1)OCO2	42
C[C@@H]1CN([C@@H](C)CO)C(=O)c2cccc(NC(=O)Nc3ccccc3)c2O[C@H]1CN(C)CC1CC1	45
COC(=O)c1ccc(NC(=O)CSC(=S)N2CCOCC2)cc1	16
C[C@H]1CN([C@@H](C)CO)C(=O)c2cccc(NC(=O)Nc3ccc(C(F)(F)F)cc3)c2O[C@H]1CN(C)CC1CC1	29
CCc1nc(SCC(=O)Nc2ccc(Br)cc2)n[nH]1	-3
Cc1ccc(OCCSc2n[nH]c3nc4ccccc4n23)cc1	35
CNC[C@H]1Oc2c(NC(=O)Nc3ccc(F)cc3)cccc2C(=O)N([C@@H](C)CO)C[C@H]1C	9
Cc1ccc(S(=O)(=O)N(C)C[C@H]2Oc3c(NC(=O)c4nc5ccccc5s4)cccc3C(=O)N([C@@H](C)CO)C[C@@H]2C)cc1	68
